# Compound activity (PubChem)
# SmPrx2 inh: Schistosoma Mansoni Peroxiredoxins (Prx2); AID 448, 2006; Potency, µM; S. mansoni Prx2 activity coupled to TGR/GSH (TGR is thioredoxin glutathione reductase), NADPH fluorescence loss, qHTS; some inactives read as strong as hits; Schistosoma mansoni peroxiredoxin 2 (Prx2); actives 0.07% (n = 65,000); active means full or partial inhibition curve with a strong effect at the top dose; inconclusive means weaker partial or single-point curve; inactive means no accepted curve; note: series up to 57 µM; many of its hits are not listed in these tables
#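 qHTS, coupled TGR/Prx2 format; 15 min compound preincubation at RT; reaction started with H2O2 (2.5 mM aliquot); kinetic NADPH fluorescence decrease, ex 365/em 450 nm.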
# Anthrax LT inh: qHTS Assay for Anthrax Lethal Toxin Internalization; Potency, µM (top dose mostly 40 µM), without a hit: at the highest dose activity change, negative = inhibition, usual class: inhibitors; actives 0.67% (n = 70,000); AID 912, 2007; Cells, anthrax lethal toxin internalization, FRET ratio (460/530); active = well fitted falling ratio curve with the 530 nm signal flat; inconclusive = other ratio curves, or a change in one channel alone; inactive = flat curves in the ratio and both channels; the % refers to the ratio; note: % is set by controls: 0 for no effect and ±100 for the full control effect; nearly all actives have a fitted effect of over 50% in size; tested in ME-180 cells; beta-lactamase reporter
# Starred values were filed as active, the others as inactive; ? = inconclusive; · = no result given; & = joins results of further samples; [ ] = another dose, or the depositor's remark. Potency is the fitted concentration of half-maximal effect.
# Each structure is followed by: Anthrax LT inh	SmPrx2 inh
COC(=O)c1ccc(C(NC(=O)OCc2ccccc2)/C(F)=C/[C@@H](C)C(=O)NCc2cc(F)cc(F)c2)cc1 (stereo not given in full)
  -7.4%	·
O=C(c1ccccc1)N1CCCCC(Sc2nnc3ccccn23)C1=O (stereo not given)
  3.8%	>57
O=C(Nc1cnc2sccn2c1=O)c1ccccc1Cl
  -14.3%	>57
Cc1ccc(S(=O)(=O)NCC2CCC(C(=O)N3CCC4(CC3)OCCO4)CC2)cc1 (stereo not given)
  1.2%	>57
O=S(=O)(CCc1nc2ccccc2o1)c1ccc(Cl)cc1
  -4.9%	>57
CCc1c(C)nc2ncnn2c1N1CCC(C(=O)NCc2cccc(OC)c2)CC1
  -7.0%	>57
CC(=O)c1c(C)n(CC2CCCO2)c2ccc(O)cc12 (stereo not given)
  12.6%	>57
COc1ccc(C2C(C(=O)NCc3ccccn3)c3cc(OC)c(OC)cc3C(=O)N2C)cc1 (stereo not given)
  4.2%	>57
COc1ccccc1-c1coc2c(CN3CCN(C)CC3)c(O)ccc2c1=O
  -4.1%	·
Cc1ccc(-c2nn(C)c(=O)c3ccccc23)cc1CNC(=O)CN1CCOCC1
  4.2%	>57
COc1ccccc1N(CN1CCCC1=O)C(=O)c1c(F)cccc1Cl
  -22.1%	>57
CCN(CC)c1ccc(NC(=O)c2ccco2)c(C)c1
  -1.2%	>57
CCc1nc2c(n1O)CCc1nonc1-2
  10.7%	>57
Cc1ccc(-c2cc(C(=O)Nc3c(C#N)cnn3C)no2)cc1
  -2.0%	>57
CCC(c1nnnn1Cc1ccco1)N1CCN(C(=O)c2ccco2)CC1 (stereo not given)
  12.9%	>57
CCOc1ccccc1N1CCN(Cc2cccc(OC)c2O)CC1
  -29.2%	>57
O=C(CC1Sc2ccccc2NC1=O)OCC(=O)N1CCc2ccccc21 (stereo not given)
  -22.2%	>57
COc1cccc(C2CC(c3ccc(Cl)cc3Cl)Nc3nc(N)nn32)c1 (stereo not given)
  20.0%	>57
CCOC(=O)C1CCCN(Cc2nc(N)nc(Nc3ccccc3)n2)C1 (stereo not given)
  1.8%	>57
COC(=O)c1ccccc1NC(=O)Cn1cc2c(n1)CCC(C)C2 (stereo not given)
  -10.8%	>57
COC(=O)C1=C(C)N(C)C(C)=C(C(=O)OC)C1c1cccc(Br)c1
  ?	·
Cc1ccc(F)cc1NC(=O)c1ccc2c(c1)OCO2
  1.0%	>57
O=c1c(-c2ccc(Cl)cc2)nc2cnc(N3CCNCC3)nc2n1-c1ccccc1
  -0.6%	>57
COc1ccccc1COCC(O)CNCC1(N2CCCCC2)CCCCC1 (stereo not given)
  -4.4%	>57
Cc1cc2c(nn1)CCC/C2=N\O
  4.1%	>57
Cc1noc(C)c1C(=O)N1CCC2(CC1)OCCO2
  ·	>57
COc1ccc(CN2C(=O)CCC2(C)C(=O)NC2CCCCCC2)cc1 (stereo not given)
  -20.3%	>57
CCC(c1nnnn1Cc1cccs1)N1CCN(C2CCCC2)CC1 (stereo not given)
  2.7%	>57
COc1ccc(NC(=O)c2cc(S(=O)(=O)N3CCCCC3)ccc2N2CCCCC2)cn1
  ?	>57
Cc1[nH]c2ccccc2c1/C=N/O
  -1.8%	>57
O=c1c2[nH]c3ccc(F)cc3c2ncn1CCN1CCOCC1
  ·	>57
O=C1CC(c2ccccc2)CC(O)=C1C=NCc1ccco1 (stereo not given)
  8.9%	>57
CC(NC(=O)c1ccc2c(c1)OCO2)C(c1cccs1)N1CCOCC1 (stereo not given)
  1.9%	>57
COC(=O)c1ccccc1NC(=O)CN1CCC(n2nnc3cc(F)ccc32)CC1
  -1.6%	>57
COc1ccc(-c2cc(=O)n(-c3nc4ccccc4[nH]3)[nH]2)cc1
  ·	>57
Cc1n[nH]c(=O)nc1NCc1ccco1
  ?	>57
COc1ccc(-c2cc(C(=O)O)c3ccccc3n2)c(OC)c1
  4.6%	>57
COc1ccc2ccccc2c1C1CC(=O)N2CN(C)CSC2=C1C#N (stereo not given)
  -28.5%	>57
Nc1nc2n(n1)C(c1cccc(Cl)c1)CC(c1ccc(F)cc1)N2 (stereo not given)
  -11.5%	>57
CC(=O)N(C(C)=O)c1ncc2c([nH]c3ccccc32)c1C#N
  22.8%	>57
Cc1ccccc1-c1nnc(-c2ccccc2)o1
  -25.3%	>57
CCC1Oc2ccccc2N(CC(=O)NCCCN2CCCCC2CC)C1=O (stereo not given)
  -15.2%	>57
COC(=O)CC[C@@H](C)[C@@H]1CC[C@@H]2[C@@H]3CC[C@H]4C[C@@H](O)CC[C@@]4(C)[C@@H]3CC[C@]21C
  2.3%[8 µM]	>57
CSc1nc2c(c(=O)n1-c1ccc(F)cc1)SCC2
  -8.4%	>57
O=C(NCCc1ccccc1)C(c1cccs1)N(C(=O)c1csnn1)C1CC1 (stereo not given)
  5.3%	>57
O=C(COC(=O)c1cc(S(=O)(=O)N2CCCCC2)ccc1N1CCOCC1)NC1CCCCC1
  19.2%	>57
CCOC(=O)c1[nH]nc(N)c1NC(=O)c1ccc(Cl)cc1Cl
  -21.3%	>57
COC(=O)c1cc(NC2c3ncccc3C(=O)N2Cc2ccccc2)cc(C(=O)OC)c1 (stereo not given)
  1.0%	>57
COc1ccc(C2C(C#N)=C(N)Oc3cc(C)n(Cc4ccncc4)c(=O)c32)cc1 (stereo not given)
  3.6%	>57
N=c1sccn1CC(=O)NCCc1ccc(Cl)cc1
  -8.7%	>57

# More results follow:
# Each structure is followed by: Anthrax LT inh	SmPrx2 inh
Nc1ccc(C(=O)NCC(=O)O)cc1
  -4.1%[3.58 µM]	>57
Cc1[nH]c2ccc(C(=O)OCCN(C)C)cc2c1C
  -10.7%	>57
CC1CCN(S(=O)(=O)c2cccc(C(=O)N(C)C3CCS(=O)(=O)C3)c2)CC1 (stereo not given)
  6.1%	>57
Cc1ccc(NC(=O)COC(=O)c2ccc3c(c2)NC(=O)C2CCCN32)cc1C (stereo not given)
  ?	>57
Cc1ccc(S(=O)(=O)N2C(=O)CCC2C(=O)Nc2ccc3c(c2)OCCO3)cc1 (stereo not given)
  11.3%	>57
CCCCn1cnc2c1c(=O)n(CC(=O)c1cc(C)n(C)c1C)c(=O)n2CC(C)C
  ?	>57
COCCCNC(=O)CCSc1ccc(Cl)cc1
  -9.9%	>57
CN(C1CCS(=O)(=O)C1)S(=O)C12CC3CC(CC(C3)C1)C2 (stereo not given)
  0.8%	>57
OCCOCCOCCn1c2ccccc2c2ccccc21
  -1.2%	>57
CCCOc1nc2c(c(=O)n(C)c(=O)n2C)n1CC
  -2.0%	>57
Cn1c(=O)[nH]c(=O)c2c1nc(N1CCc3ccccc3C1)n2CCSc1nc2ccccc2s1
  ?	>57
CN1CCN(c2nc3cc(C(F)(F)F)ccc3n3cccc23)CC1
  ?	>57&>57
COC(=O)c1[nH]c2ccc(C)cc2c1NC(=O)CN1CCN(Cc2ccccc2)CC1
  ?	·
O=C(c1cccc(F)c1)N1CCC2(CCCN(Cc3ccccc3)C2)CC1
  ?	>57
CCOC(=O)c1c(N)sc(C(=O)N2CCCCCC2)c1C
  ?	>57
c1ccc(Sc2nc(N3CCCCC3)nc(N3CCCCC3)n2)nc1
  ?	·
CC(=O)OC[C@@H]1O[C@H](CCO/N=C(\C)CCN2CCCCc3nc(C)c(C)cc32)C=C[C@@H]1OC(C)=O
  -2.3%[1.6 µM]	·
COCCn1c(=O)c(-c2ccccc2)nc2cncnc21
  6.1%	>57
CCc1cc(Br)ccc1N1C(=O)C2CC=CCC2C1=O (stereo not given)
  -2.4%	·
O=C(O)CCC(=O)N(Cc1cccnc1)Cc1cccc(F)c1
  -4.8%	>57
COC(=O)[C@@]1(Cc2ccc(F)cc2)[C@H]2c3cc(C(=O)N(C)C)n(CCSCCO)c3C[C@H]2CN1C(=O)c1ccccc1
  0.6%	>57
Cn1cc(CN2CCN(c3ccccc3)CC2)c2ccccc21
  ?	>57
Cc1ccc(N2C(=O)c3ccccc3C2O)nc1 (stereo not given)
  14.2%	>57
O=C(O)[C@@H]1CCCN[C@H]1C(=O)O
  -2.0%	>57
C=Cn1ccnc1P(=S)(c1nccn1C=C)C1CCCCC1
  8.7%	>57
CCc1ccccc1NC(=O)c1cnc2n(c1=O)CCS2
  13.0%	>57
O=C(CCc1ccccc1)Nc1cc(Cl)ccc1O
  ?	·
CCCCN(C)CCCNC(=O)CS(=O)Cc1nc(-c2ccc(OC)c(OC)c2)oc1C (stereo not given)
  -2.2%	>57
CN(C)C(=O)c1ccc(-c2nccc(N(C)Cc3ccco3)n2)cc1
  -8.0%	>57
COc1cc(OC)cc(-c2nc3nc(C)c(CCC(=O)O)c(C)n3n2)c1
  4.1%	>57
NC(=O)CSc1cn(CCNC(=O)c2cccs2)c2ccccc12
  6.6%	>57
CN(C)c1ccc(CNn2cnnc2SCc2ccc(F)cc2)cc1
  -11.3%	>57
C/C=C/c1ccc(OCCSc2nc(C)cc(=O)[nH]2)c(OC)c1
  10.7%	>57
CCOC(=O)c1c(-c2cccs2)csc1NC(=O)CN1CC(C)OC(C)C1 (stereo not given)
  ?	>57
C[C@@H](CN1c2ccccc2Sc2ccccc21)N(C)C
  ?	>57&>57
CC1(C)N=C2C(=[N+]1[O-])CCC/C2=N\O
  -6.1%	>57
O=C(O)COc1ccc2occ(C(=O)c3ccccc3)c2c1
  21.1%	>57
Cc1cccc(N2CCN(C(=O)c3cc4c(=O)[nH]c5ccccc5c4n3C)CC2)c1C
  3.6%	>57
Cc1ccc(-n2nc3c([n+]2[O-])CCc2c-3no[n+]2[O-])cc1
  6.9%	>57
CCOC(=O)N1CCN(CC(O)COCC2=CCC3CC2C3(C)C)CC1 (stereo not given)
  0.0%	>57

# Record cards, as listed above:
# `C[C@@H](CN1c2ccccc2Sc2ccccc21)N(C)C` is listed as Anthrax LT inh: ?; SmPrx2 inh: >57&>57
# `CC1(C)N=C2C(=[N+]1[O-])CCC/C2=N\O` is listed as Anthrax LT inh: -6.1%; SmPrx2 inh: >57

# (next part)
# Each structure is followed by: Anthrax LT inh	SmPrx2 inh
COc1ccc(N(CC(=O)Nc2cccc(SC)c2)S(C)(=O)=O)cc1
  -6.8%	>57
NC(=O)Cc1c[nH]c2cccc(O)c12
  -11.2%	>57
COC(=O)C/C=C\[C@@H](C)[C@@H](/C=N\OC[C@@H](C)[C@H](OCc1ccccc1)C(C)C)OC
  -9.9%[8 µM]	·
CCC(=O)Nc1ccc(S(=O)(=O)N2CCc3ccccc3C2)cc1
  -18.5%	>57
O=C(CS(=O)(=O)c1cn(Cc2cccc(F)c2)c2ccccc12)N1CCCCC1
  3.6%	>57
CCCNS(=O)(=O)c1ccc(CCC(=O)N2CCC(C)CC2)cc1
  -0.6%	>57
COc1ccccc1CNC(=O)C1CCCN1S(=O)(=O)c1cccc2cccnc12 (stereo not given)
  -4.3%	>57
Cc1ccc(OCC(=O)N2CCN(C)CC2)c(Br)c1
  ·	>57
COCCn1c(C)cc(C(=O)CSc2nnc3ccccn23)c1C
  7.7%	>57
Cc1ccc2c(c1)N(CC(=O)N1CCc3ccccc3C1)C(=O)CO2
  -8.8%	>57
O=C1C2CC=C(Cl)CC2C(=O)N1CCc1ccccc1 (stereo not given)
  -2.9%	>57
CC1=C(O)C(=O)[C@H]2O[C@@H]2C1=O
  ?	>57
CC(C)=CC(=O)OCC(=O)Nc1ccc(F)cc1Cl
  -8.1%	>57
COC(=O)Cc1c(C)nc2nc(-c3ccc(OC)cc3)[nH]n2c1=O
  -0.4%	>57
CCCC(NC(=O)CNC(=O)C(C)(C)C)C(=O)O (stereo not given)
  -8.9%	>57
CCNc1ncc2nc(CCc3ccccc3)c(=O)n(CCC#N)c2n1
  ?	>57
c1coc(CNc2c3c(nc4ncnn24)CCCC3)c1
  -1.2%	>57
O=C(Cn1[nH]c(=O)c2ccccc2c1=O)Nc1ccc2c(c1)CCC2
  -15.8%	>57
N#Cc1c2n(c3c(=O)n(Cc4ccc(Cl)cc4)cnc13)CCCCC2
  -2.0%	·
O=C(COC(=O)c1cccs1)NCCN1C(=O)CSC1=O
  10.5%	>57
COc1ccccc1N1CCN(C(=O)C2CCN(S(=O)(=O)c3ccccc3)CC2)CC1
  2.5%	·
CCc1ccccc1NC1=NCC(=O)N1Cc1ccccc1
  ?	>57
Cc1ccc2[nH]c(=O)c(CNC(C)(C)C)cc2c1
  ?	>57
CCOC(=O)C1=C(N)N2C(=O)C(C)SC2=C(C(=O)OCC)C1c1ccccc1 (stereo not given)
  -2.5%	>57
CC(C)C[C@@H](CC(=O)N[C@@H](CCC(=O)O)CC(=O)O)NC(=O)[C@@H]1CCCC[C@H]1NC(=O)C[C@@H](NC(=O)C[C@H](Cc1ccccc1)NC(=O)[C@@H]1CCCC[C@H]1N)C(C)C
  -7.1%	>57
Cc1cnc(NC(=O)C2CCCO2)s1 (stereo not given)
  -0.3%	>57
CN(C)CN1CSC(=S)N(CN(C)C)C1
  -1.3%[8 µM]	>57

# Only part of the results is shown; rates above refer to the full screens.
